MARV entry inh: inhibitors of Marburg virus binding or cell entry; Marburg virus pseudotyped entry inhibition, cell reporter; control for the full effect not named in the record; about a third of the inactives were read at about 46 µM; hit rate 1.8% among 300,000; Potency, µM (highest dose often 37.8 µM), for the others: top-dose activity change, negative = inhibition, hits mostly inhibitors; AID 540276; active = well fitted inhibition curve with a large enough effect; inconclusive = small, poorly fitted or top-dose-only effect, or effect the other way; inactive = flat fitted curve, though single readings scatter; tested in HEK293 cells; about a fifth of its hits are not listed in these tables; also: % is scaled to controls: 0 for no effect and ±100 for the full control effect; luciferase read-out
Cruzain inh Det: cruzain (T. cruzi) inhibition with detergent; AID 1478; Potency, µM, for the others: max response, negative = inhibition, most hits filed as inhibitors; purified cruzain, Z-FR-AMC fluorescence, 0.01% Triton; P25779; hit rate 0.43% among 200,000;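 also: plate controls were neutral wells for no effect and buffer without enzyme for full effect; nearly all actives have a fitted effect of over 40% in size; top concentration of the series not given in the record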
Target sequence (P25779 123-467 limits assumed): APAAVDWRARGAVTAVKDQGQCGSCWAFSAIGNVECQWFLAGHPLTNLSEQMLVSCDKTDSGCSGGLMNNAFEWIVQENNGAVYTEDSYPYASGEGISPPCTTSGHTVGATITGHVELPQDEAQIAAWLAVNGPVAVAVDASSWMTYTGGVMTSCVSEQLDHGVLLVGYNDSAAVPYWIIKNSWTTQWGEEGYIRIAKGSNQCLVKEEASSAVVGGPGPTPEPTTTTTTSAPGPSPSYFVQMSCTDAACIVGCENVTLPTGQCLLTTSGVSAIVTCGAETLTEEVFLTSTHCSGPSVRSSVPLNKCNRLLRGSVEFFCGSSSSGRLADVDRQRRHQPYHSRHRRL
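Cruzain (1.5 nM) preincubated 15 min at RT with compound in 100 mM sodium acetate pH 5.5, 5 mM DTT, 0.01% Triton X-100. Reaction started with 2 uM Z-FR-AMC; AMC fluorescence (ex 360/em 450 nm) change over 60 s gave rate.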
StopGo reporter: FMDV 2A StopGo reporter, luciferase signal | human cells with a luciferase reporter of 2A StopGo recoding; control for the full effect not named in the record | Potency, µM (doses to about 57.9 µM), without a hit: at the highest dose signal change, negative = less light | hit rate 1.2% among 410,000 | AID 1159524; active = well fitted falling curve with a large enough effect; inconclusive = small, poorly fitted or top-dose-only effect; inactive = no such curve, though single readings can be large or run the other way; tested in HEK293T cells; also: % is scaled to controls: 0 for no effect and ±100 for the full control effect; nearly all actives have a fitted effect of over 45% in size; luciferase light after 4 h
NS1 inh: blocks influenza NS1 protein function; S. cerevisiae slowed by influenza A NS1, growth recovery by OD600; Potency, µM (highest dose often 46.1 µM), for the others: at the highest dose activity, positive = more growth; hit rate 0.4% among 270,000; AID 2326; active means well fitted rising curve with a large enough effect; inconclusive means small, poorly fitted or top-dose-only effect; inactive means no such curve, though single readings can be large or run the other way; also: nearly all actives have a fitted effect of over 50% in size
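A cell-based growth assay was used: compounds that relieve NS1-induced slow growth of budding yeast raise OD600. Assay medium was yeast nitrogen base with ammonium sulphate and -URA supplement, pH 6.0, with 2% galactose.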
RE007 growth inh: less growth of the S. pombe RE007 Vpr strain | S. pombe RE007 Vpr strain, BacTiter-Glo ATP luminescence, 24 h; control for the full effect not named in the record | Potency, µM (titrated, usually from 92.2 µM), without a hit: at the highest dose activity change, negative = less growth | hit rate 0.21% among 360,000 | AID 651644; active = well fitted falling curve with a large enough effect; inconclusive = small, poorly fitted or top-dose-only effect; inactive = no such curve, though single readings can be large or run the other way;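 also: % is scaled to controls: 0 for no effect and ±100 for the full control effect; nearly all actives have a fitted effect of over 50% in size; the assay follows cell death caused by Vpr and the record does not say whether a fall means rescue or toxicity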
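Fission yeast RE007 carrying one integrated HIV-1 vpr copy, seeded at OD 0.01 in PMG+AL medium with 23 nL pinned compound. Grown 24 h at 30 degrees; viability read by BacTiter-Glo luminescence after 5 min.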
Cruzain inh noDet: cruzain (T. cruzi) inhibition without detergent; purified cruzain, Z-FR-AMC fluorescence, no detergent; Potency, µM, for the others: max response, negative = inhibition, hits mostly inhibitors; hit rate 2.3% among 200,000; AID 1476;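 also: plate controls were enzyme without inhibitor for no effect and buffer without enzyme for full effect; nearly all actives have a fitted effect of over 40% in size; top concentration of the series not given in the record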
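Detergent-free condition (0.00005% Triton X-100) in acetate buffer pH 5.5 with DTT. 1.5 nM enzyme and compound were pre-mixed 15 min, then 2 uM Z-FR-AMC substrate added; reaction progress from fluorescence change between first and third reads (60 s).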
LASV entry inh: blocks Lassa virus binding to or entry into cells; Lassa virus pseudotype entry inhibition, cell reporter; control for the full effect not named in the record; Potency, µM (top dose mostly 37.9 µM), without a hit: at the top dose activity change, negative = inhibition, usual class: inhibitors; hit rate 1.2% among 300,000; active means well fitted inhibition curve with a large enough effect; inconclusive means small, poorly fitted or top-dose-only effect, or effect the other way; inactive means flat fitted curve, though single readings scatter; tested in HEK293 cells; also: % is scaled to controls: 0 for no effect and ±100 for the full control effect; nearly all actives have a fitted effect of over 50% in size; luciferase read-out
SARS PLP yeast: SARS-CoV PLP inhibition in yeast; Potency, µM (top dose mostly 32.9 µM), for the others: at the highest dose activity, positive = growth rescue; hit rate 0.19% among 330,000; S. cerevisiae expressing SARS-CoV PLpro, growth rescue; control for the full effect not named in the record; AID 485353; active means well fitted rising curve with a large enough effect; inconclusive means small, poorly fitted or top-dose-only effect; inactive means no such curve, though single readings can be large or run the other way; also: 0% is about no effect; nearly all actives have a fitted effect of over 55% in size; growth read by luminescence after 48 h
Active calls of the source: *; ? = inconclusive; . = no result given; [ ] = dose if it differs, or a comment. Unless noted, calls follow the shape of the dose curve; as a rule, active = well fitted curve in the direction sought with a large enough effect; inconclusive = small, poorly fitted or top-dose-only effect, or another doubt; inactive = no such curve, though single readings can be large; an effect the other way counts as inactive or inconclusive. Potency is read from the fitted curve at half-maximal effect.

Results follow in this order: MARV entry inh | Cruzain inh Det | StopGo reporter | NS1 inh | RE007 growth inh | Cruzain inh noDet | LASV entry inh | SARS PLP yeast
- CCc1ccc(NC(=O)CSc2nc(C)cc(COC)c2C#N)cc1
    -1%[46.1 µM] | -3.4% | -18% | . | . | -10% | 1%[46.1 µM] | .
- Cc1ccc(C)c(Nc2nnc(-c3ccc(C)c(S(=O)(=O)N4CCCCC4)c3)c3ccccc23)c1
    . | -6.4% | -1% | . | . | -2% | ? | .
- NC(Cc1ccccc1)Cc1ccccc1
    -14%[46.1 µM] | . | -12% | . | -7% | . | 1% | 2%
- Cc1c(C)c2ccc(OCC(=O)N3C[C@H]4C[C@@H](C3)c3cccc(=O)n3C4)c(C)c2oc1=O
    . | . | -4% | -7% | -17% | . | . | -4%
- O=C(CCc1ccccc1)Nc1nncs1
    9% | 1.7% | -13% | 6% | 7% | -3% | -1% | 2%
- CN(C)S(=O)(=O)c1ccc(C(=O)NCC(C)(C)N2CCOCC2)cc1
    . | . | -13% | -8% | -9% | . | . | 0%
- Cc1cccc(Cl)c1OCCCN1CCOCC1
    -2% | . | 4% | -3% | -19% | . | 21% | -5%
- CC1(C)Cc2ccccc2C(N/N=C/c2cccc(F)c2)=N1
    ? | 1.4% | ? | -11% | -29% | 2% | ? | -3%
- CCCn1c(=O)c(C(=O)NNS(=O)(=O)c2ccc(C)cc2)c(O)c2ccccc21
    ? | -4.2% | 17% | -3% | -6% | 13µM* | -4% | 8%
- C=CCn1c(-c2csc3ccccc23)n[nH]c1=S
    -13% | -3.8% | 18% | -6% | 8% | -12% | 5% | ?
- CCOC(=O)c1cnc2sc3c(n2c1=O)CCCC3
    1% | -23% | 0% | -59% | -28% | -21% | -10% | 7%
- O=C(NCc1ccc(F)cc1)c1c2c(nc3ccccc13)CCN(Cc1ccccc1)C2
    ? | 1.6% | -15% | 1% | 13% | ? | -1% | ?
- CCCN(CC(=O)Nc1ccccc1C)C(=O)c1sc2ccccc2c1Cl
    ? | . | 14% | . | 13% | . | -13% | -6%
- O=c1[nH]c(CN2CC=C(c3ccccc3)CC2)nc2cc(C(F)(F)F)ccc12
    -23% | -5.3% | -21% | 26% | -6% | ? | -15% | -11%
- Cc1ccc(CN2CCN(Cc3ccc4cccc(F)c4n3)CC2CCO)cc1 (stereo unspecified)
    . | . | -15% | 4% | -6% | . | . | 3%
- O=C(Cn1cnnn1)NC1CCCN(Cc2ccccc2F)C1 (stereo unspecified)
    12%[46.1 µM] | . | -4% | 3% | 3% | . | 4%[46.1 µM] | 4%
- COc1ccc(CCNC(=O)COC(=O)Cn2cnc3ccccc32)cc1OC
    6%[46.1 µM] | . | -10% | . | 9% | . | 13% | -2%
- CCC(C)[C@H](NC(=O)N1c2ccccc2NC(=O)[C@@H]1C(C)C)C(=O)N[C@@H](Cc1ccccc1)C(=O)O (stereo partly specified)
    . | . | -12% | 1% | 5% | . | . | -7%
- Cc1cc(Cl)ccc1OCCCC(=O)NCc1ccccn1
    -15%[46.1 µM] | . | -20% | . | 3% | . | . | 1%
- S=C(c1ccc(-c2ccc(Cl)cc2Cl)o1)N1CCCC1
    . | . | 11% | 3% | -15% | . | . | -3%
- CCOC(=O)c1c(C)c(C(=O)NCCc2ccc(OC)cc2)c(C)n1CC
    -26%[46.1 µM] | -0.6% | -17% | . | . | -4% | . | .
- COC(=O)c1ccccc1NC(=O)C1CCC(=O)N1S(=O)(=O)c1ccc(C)cc1 (stereo unspecified)
    ? | 3.7% | -3% | 8% | 10% | 0% | 51%[14.3 µM] | -8%
- COc1ccc(S(=O)(=O)NCc2ccc(C(=O)N3CCN(Cc4ccccc4)CC3)cc2)cc1
    . | . | ? | -27% | -4% | . | . | -3%
- COc1ccccc1C(=O)NC(=O)CSc1nnc(SC)s1
    -20% | . | -18% | . | -5% | . | -12% | 4%
- O=C(CSc1ccccc1)N1CCN(c2ccc(F)cc2)CC1
    1%[46.1 µM] | . | -15% | . | 21% | . | 2%[46.1 µM] | .
- CCOc1cc(NC(=S)NCCc2ccccc2)c(OCC)cc1NC(C)=O
    -33%[46.1 µM] | . | 12% | -3% | 3% | . | 13% | -1%
- CC(NC(=O)C(=O)Nc1c2c(nn1-c1ccccc1)CSC2)c1ccccc1 (stereo unspecified)
    . | -0.5% | 0% | . | . | ? | 0%[46.1 µM] | .
- Cc1cc(Cl)ccc1OCC(=O)OCC(=O)Nc1ccc(F)c([N+](=O)[O-])c1
    15% | -8.1% | -2% | -77% | -18% | 1% | 11% | -83%
- COc1ccc(S(=O)(=O)c2cn(Cc3ccccc3)c3ccc(OC)cc3c2=O)cc1
    -12%[46.1 µM] | -4.0% | 3% | . | . | -5% | -3%[46.1 µM] | .
- O=[N+]([O-])c1cc(S(=O)(=O)N2CCCC2)ccc1N/N=C/c1cccnc1
    ? | -2.1% | -15% | 15% | 1% | 7% | 1% | -1%
- COc1cccc(CN2CCN(C3CCN(c4ccccc4F)CC3)CC2CCO)c1 (stereo unspecified)
    -9%[46.1 µM] | . | -4% | 1% | -18% | . | 2%[46.1 µM] | 1%
- CCCN(CC1CC1)C(=O)CSc1nnc(-c2cc(-c3cccs3)nc3ccccc23)o1
    ? | -4.0% | -27% | 6% | 17% | 16µM* | ? | 1%
- COC(=O)c1c(C(=O)OC)c(-c2cccc(F)c2)n2c1CS(=O)(=O)C2
    . | . | 11% | 3% | -4% | . | . | 1%
- COc1ccc(C2(NC(C)=O)CCN(Cc3cccnc3)CC2)cc1
    17% | . | -12% | 5% | -4% | . | 4% | 3%
- COc1ccccc1C(=O)Nc1ccnn1C1CCN(Cc2ccn[nH]2)CC1
    12% | . | -4% | 8% | -7% | . | -15% | -3%
- O=C(Nn1c(-c2ccc(Br)cc2)nc2ccccc2c1=O)c1ccncc1
    -10%[46.1 µM] | . | -11% | . | 6% | . | 15% | 2%
- O=C(Nc1c2c(nn1-c1cccc(Cl)c1)CS(=O)(=O)C2)c1ccc2c(c1)OCO2
    . | . | -6% | 3% | 10% | . | . | 7%
- Cc1nn(-c2ccc([N+](=O)[O-])cc2)c2c1C(c1ccc(OC(F)F)cc1)N1C(=N2)C(=O)Nc2ccccc21 (stereo unspecified)
    ? | . | -16% | 7% | 2% | . | ? | 0%
- CCCCOc1ccc(CNC(=O)C2CCN(c3nnc(-n4cccc4CNc4ccc(C)cc4)s3)CC2)cc1
    -2%[46.1 µM] | -4.2% | -12% | . | . | -10% | . | .
- COc1ccc(/C=C(/C#N)C(=O)Nc2cccnc2)cc1OC
    -8% | -4.0% | -9% | 7% | . | -3% | 14% | 10%
- CC(=O)Nc1ccc(NC(=O)CSc2nnc(COc3ccccc3C)n2CC2CCCO2)cc1 (stereo unspecified)
    -1%[46.1 µM] | . | 10% | . | 24% | . | -2% | 2%
- COc1cccc2cc(C(=O)Nc3cc(Cl)ccc3N3CCOCC3)c(=O)oc12
    ? | . | -11% | 26% | 11% | . | 18%[46.1 µM] | 1%
- O=C(c1ccccc1-n1cccn1)N1CCc2c([nH]c3ccccc23)C1c1ccccn1 (stereo unspecified)
    ? | . | 10% | -2% | 7% | . | ? | 0%
- Cc1nn(-c2ccccc2)c(N2CCCC2)c1/C=N/NC(=S)Nc1ccccc1C(F)(F)F
    ? | -6.8% | -28% | 12% | 0% | ? | ? | -22%
- CSc1ccc(CCNC(=O)C(C)n2c(C)c3cnn(-c4ccccc4)c(=O)c3c2C)cc1 (stereo unspecified)
    4%[46.1 µM] | -8.5% | -7% | . | . | ? | -12%[46.1 µM] | .
- COc1ccc(C(=O)N2CCSCC2)cc1OC1CCN(C(C)=O)CC1
    25% | . | -8% | 10% | 21% | . | 10% | 5%
- C=CCOc1cccc(CNCc2cccnc2)c1
    15%[46.1 µM] | . | -2% | 0% | 1% | . | 1%[46.1 µM] | 4%
- COc1ccc(CNS(=O)(=O)c2ccc(N3CCCC3)cc2Br)cc1
    . | . | 2% | . | 3% | . | ? | -14%
- CCN(C(=O)COC(=O)c1ccc(O)cc1)c1cccc2ccccc12
    -23% | . | -23% | . | 5% | . | -5% | -6%
- O=C(Nc1ccc2c(c1)OCCO2)c1cc2sccc2n1Cc1ccc(F)cc1
    -9% | -0.8% | -27% | -1% | 12% | ? | -24% | -8%
- O=C(CSc1nnc(NC(=O)c2ccc(S(=O)(=O)N3CCOCC3)cc2)s1)Nc1ccccc1C(F)(F)F
    -5% | 2.0% | -7% | 4% | 1% | 8% | -6% | 7%
- CC(C)NC(=O)N1CCCN(c2nc3ccc(Cl)cc3s2)CC1
    -23% | . | -27% | -4% | -24% | . | -3% | -2%
- CCn1c(COc2ccccc2C)nc2ccccc21
    -8% | -2.5% | 39%[activator] | -25% | ? | 7% | -1% | -4%
- CN(C)S(=O)(=O)Oc1cccc(C(=O)Nc2ccccc2Cl)c1
    31% | -3.6% | -8% | -60% | 4% | -4% | -11% | 0%

Given bar-delimited: entries from further up
canonical_smiles | MARV entry inh | Cruzain inh Det | StopGo reporter | NS1 inh | RE007 growth inh | Cruzain inh noDet | LASV entry inh | SARS PLP yeast
COc1ccc(C(=O)N2CCSCC2)cc1OC1CCN(C(C)=O)CC1 | 25% | . | -8% | 10% | 21% | . | 10% | 5%
C=CCOc1cccc(CNCc2cccnc2)c1 | 15%[46.1 µM] | . | -2% | 0% | 1% | . | 1%[46.1 µM] | 4%
COc1ccc(CNS(=O)(=O)c2ccc(N3CCCC3)cc2Br)cc1 | . | . | 2% | . | 3% | . | ? | -14%
CCN(C(=O)COC(=O)c1ccc(O)cc1)c1cccc2ccccc12 | -23% | . | -23% | . | 5% | . | -5% | -6%

Assay outcomes (PubChem)
